LASV entry inh: Lassa virus entry inhibition; Lassa virus pseudotype entry inhibition, cell reporter; control for the full effect not named in the record; Potency, µM (highest dose often 37.9 µM), for inactives: top-dose activity change, negative = inhibition, hits mostly inhibitors; 300,000 compounds, 1.2% hits; AID 540256; active means well fitted inhibition curve with a large enough effect; inconclusive means small, poorly fitted or top-dose-only effect, or effect the other way; inactive means flat fitted curve, though single readings scatter; tested in HEK293 cells; note: % is set by controls: 0 for no effect and ±100 for the full control effect; nearly all actives have a fitted effect of over 50% in size; luciferase read-out
SARS PLpro yeast: inhibitors of SARS-CoV papain-like protease in yeast. S. cerevisiae expressing SARS-CoV PLpro, growth rescue; control for the full effect not named in the record. Potency, µM (highest dose often 32.9 µM), inactives show at the highest dose activity, positive = growth rescue. 330,000 compounds, 0.19% hits. AID 485353; note: 0% is about no effect; nearly all actives have a fitted effect of over 55% in size; growth read by luminescence after 48 h
StopGo reporter: FMDV 2A StopGo reporter, luciferase signal; Potency, µM (series often up to 57.9 µM), for the others: at the top dose signal change, negative = less light; human cells with a luciferase reporter of 2A StopGo recoding; control for the full effect not named in the record; 410,000 compounds, 1.2% hits; AID 1159524; active = well fitted falling curve with a large enough effect; inconclusive = small, poorly fitted or top-dose-only effect; inactive = no such curve, though single readings can be large or run the other way; tested in HEK293T cells; note: % is set by controls: 0 for no effect and ±100 for the full control effect; nearly all actives have a fitted effect of over 45% in size; luciferase light after 4 h
RE007 growth inh: less growth of the S. pombe RE007 Vpr strain | S. pombe RE007 Vpr strain, BacTiter-Glo ATP luminescence, 24 h; control for the full effect not named in the record | 360,000 compounds, 0.21% hits | Potency, µM (titrated, usually from 92.2 µM), without a hit: at the top dose activity change, negative = less growth; active = well fitted falling curve with a large enough effect; inconclusive = small, poorly fitted or top-dose-only effect; inactive = no such curve, though single readings can be large or run the other way;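 note: % is set by controls: 0 for no effect and ±100 for the full control effect; nearly all actives have a fitted effect of over 50% in size; the assay follows cell death caused by Vpr and the record does not say whether a fall means rescue or toxicity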
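Fission yeast strain RE007, carrying one chromosomally integrated HIV-1 vpr copy, was seeded at OD 0.01 in PMG+AL medium with 23 nL pinned compound. After 24 h at 30 °C and 99% humidity, viability was read by BacTiter-Glo luminescence.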
NS1 function inh: inhibitors of influenza NS1 protein function; Potency, µM (titrated, usually from 46.1 µM), inactives show at the highest dose activity, positive = more growth; AID 2326; S. cerevisiae slowed by influenza A NS1, growth recovery by OD600; 270,000 compounds, 0.4% hits; note: actives are rising curves; nearly all actives have a fitted effect of over 50% in size
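Recovery from NS1-induced slow growth read by OD600 in budding yeast switched to galactose assay medium (pH 6.0, -URA) at 1:100 dilution. Compound 23 nl per well; the matching strain lacking NS1 serves as control.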
Cruzain Triton: cruzain (T. cruzi) inhibition with detergent. 200,000 compounds, 0.43% hits. Potency, µM, for the others: max response, negative = inhibition, usual class: inhibitors. purified cruzain, Z-FR-AMC fluorescence, 0.01% Triton. AID 1478; active = well fitted curve in the direction sought with a large enough effect; inconclusive = small, poorly fitted or top-dose-only effect, or another doubt; inactive = no such curve, though single readings can be large; an effect the other way counts as inactive or inconclusive;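 note: plate controls were neutral wells for no effect and buffer without enzyme for full effect; nearly all actives have a fitted effect of over 40% in size; top concentration of the series not given in the record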
Target sequence (P25779 123-467 limits assumed): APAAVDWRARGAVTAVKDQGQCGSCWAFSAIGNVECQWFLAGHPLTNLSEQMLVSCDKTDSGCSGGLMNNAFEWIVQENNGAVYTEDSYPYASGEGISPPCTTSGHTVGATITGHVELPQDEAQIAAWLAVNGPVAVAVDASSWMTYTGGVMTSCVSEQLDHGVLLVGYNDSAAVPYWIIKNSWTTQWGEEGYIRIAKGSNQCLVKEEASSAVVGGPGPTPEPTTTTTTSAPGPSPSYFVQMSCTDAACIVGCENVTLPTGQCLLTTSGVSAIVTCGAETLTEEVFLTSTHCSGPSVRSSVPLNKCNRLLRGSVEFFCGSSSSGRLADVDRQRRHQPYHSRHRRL
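Read-out: AMC fluorescence (360 nm excitation, 450 nm emission), four reads over 2 min, first-to-third difference used. Conditions: cruzain 1.5 nM, Z-FR-AMC 2 uM, pH 5.5 acetate, 5 mM DTT, 0.01% Triton X-100.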
MARV entry inh: Marburg virus entry inhibition; Marburg virus pseudotyped entry inhibition, cell reporter; control for the full effect not named in the record; about a third of the inactives were read at about 46 µM; Potency, µM (titrated, usually from 37.8 µM), inactives show at the top dose activity change, negative = inhibition, most hits filed as inhibitors; 300,000 compounds, 1.8% hits; AID 540276; active = well fitted inhibition curve with a large enough effect; inconclusive = small, poorly fitted or top-dose-only effect, or effect the other way; inactive = flat fitted curve, though single readings scatter; tested in HEK293 cells; about a fifth of its hits are not listed in these tables; note: % is set by controls: 0 for no effect and ±100 for the full control effect; luciferase read-out
Cruzain noTriton: blocks cruzain activity in detergent-free assay. purified cruzain, Z-FR-AMC fluorescence, no detergent. Potency, µM, inactives show max response, negative = inhibition, hits mostly inhibitors. 200,000 compounds, 2.3% hits. AID 1476; active = well fitted curve in the direction sought with a large enough effect; inconclusive = small, poorly fitted or top-dose-only effect, or another doubt; inactive = no such curve, though single readings can be large; an effect the other way counts as inactive or inconclusive;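 note: plate controls were enzyme without inhibitor for no effect and buffer without enzyme for full effect; nearly all actives have a fitted effect of over 40% in size; top concentration of the series not given in the record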
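Detergent-free condition (0.00005% Triton X-100) in acetate buffer pH 5.5 with DTT. 1.5 nM enzyme and compound were pre-mixed 15 min, then 2 uM Z-FR-AMC substrate added; reaction progress from fluorescence change between first and third reads (60 s).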
An asterisk follows results filed as active; ? = inconclusive; . = no result given; [ ] = dose if it differs, or a comment. Unless noted, calls come from the whole dose curve; as a rule, active means well fitted rising curve with a large enough effect; inconclusive means small, poorly fitted or top-dose-only effect; inactive means no such curve, though single readings can be large or run the other way. Potency is the fitted concentration of half-maximal effect. An unsorted share of the library; 4.6% or so of the library scored in one or more.

SMILES	LASV entry inh	SARS PLpro yeast	StopGo reporter	RE007 growth inh	NS1 function inh	Cruzain Triton	MARV entry inh	Cruzain noTriton
CCOc1cc(C(C(=O)NCC2CCCO2)N(C(=O)Cn2nnc3ccccc32)c2cccc(OC)c2)ccc1O (stereo not drawn)	11%	-1%	22%	29%	-6%	.	-2%[46.1 µM]	.
Cc1nc(-c2cc(-c3nc(-c4ccc(C(F)(F)F)cc4)no3)no2)cs1	1%	1%	-18%	1%	6%	.	10%	.
COC(=O)c1cc2c(ccn2-c2ccc(F)cc2)n1CC(=O)OC(C)C	?	0%	-24%	-11%	1%	.	-16%	.
COC(=O)c1ccccc1-n1cc2c(c1-c1cccc(C)c1)c(=O)n(C)c(=O)n2C	-1%[46.1 µM]	.	-25%	.	.	-5.6%	-3%[46.1 µM]	-8%
Cc1[nH]c(=O)[nH]c(=O)c1S(=O)(=O)NCC12CC3CC(CC(C3)C1)C2	-1%	?	-10%	9%	1%	0.7%	2%	-15%
COc1cccc(-c2cc(C(=O)N3CCCCC3C)no2)c1 (stereo not drawn)	.	0%	78%[activator]	-10%	-8%	-1.4%	1%	-3%
COc1cccc(NC(=O)CC(=O)Nc2ccc3nc4n(c(=O)c3c2)CCCCC4)c1	16%[46.1 µM]	.	-10%	.	.	-4.3%	4%[46.1 µM]	5%
CCOC(=O)c1c(C)[nH]c(C)c1S(=O)(=O)N1CCC(C(=O)N2CCN(c3cccc(Cl)c3)CC2)CC1	5%[46.1 µM]	.	?	.	.	2.6%	.	-3%
COc1ccc(/C=C2\SC(=O)N(CC(=O)NCCC(C)C)C2=O)cc1OC	1%	0%	-1%	1%	3%	.	16%	.
CCN(CC)C(=O)[C@H]1CC(CC(=O)NCc2ccco2)C(=O)N2CCc3c([nH]c4ccc(OC)cc34)[C@]12C (stereo partly drawn)	.	-12%	-10%	-9%	.	.	0%	.
CCOc1ccc(CCNC(=O)C2CCN(Cc3nc(-c4ccccc4C)oc3C)CC2)cc1OCC	-8%[46.1 µM]	.	?	.	.	-0.1%	-16%[46.1 µM]	-7%
c1ccc(-c2noc(-c3cccc4ccccc34)n2)nc1	?	-9%	?	-35%	-121%	-6.2%	?	-1%
Cc1ccc(NC2CCCN(C(=O)CCN3CCCCO3)C2)cc1C (stereo not drawn)	-2%	1%	-8%	-12%	2%	.	17%	.
COc1ccc(/C(C)=N\NC(=O)C(c2ccncc2)N2CCOCC2)cc1 (stereo not drawn)	11%	0%	-13%	14%	4%	.	4%[46.1 µM]	.
COCC(=O)N1CCC(Oc2ccc(C(=O)NCc3cc(C)no3)cc2)CC1	.	?	1%	-3%	?	.	.	.
COc1ccc(N2CCN(C(=O)c3cccc(NC(=O)c4nsc5ccccc45)c3)CC2)cc1	-28%[46.1 µM]	.	6%	.	.	-1.0%	.	-23%
CCOc1ccc(N=C2NC(=O)S/C2=C\c2ccc(N(C)C)cc2)cc1	-4%	5%	1%	0%	-30%	-5.4%	-28%	?
Cc1ccc(C)c(OCC(=O)Nc2cc(C(=O)O)cc(C(=O)O)c2)c1	.	1%	2%	-15%	1%	.	.	.
CCOC(=O)C1=C(O)C(=O)N(Cc2cccnc2)C1c1ccc(OC)cc1 (stereo not drawn)	-2%[46.1 µM]	0%	-8%	7%	5%	.	?	.
O=C(/C=C/c1ccco1)Nc1scc(-c2ccccc2)c1C(=O)O	?	-3%	?	?	-46%	.	?	.
CC(C)CN(C(=O)CN1CCOCC1)c1c(N)n(CC(C)C)c(=O)[nH]c1=O	5%	11%	-22%	.	-8%	-0.6%	-23%	-1%
O=C(NCC(c1cccs1)N1CCOCC1)c1ccc(Cl)cc1 (stereo not drawn)	?	4%	-12%	2%	.	.	-25%	.
CN(C)c1ccc(C(CNS(=O)(=O)c2ccc(F)cc2)N2CCCC2)cc1 (stereo not drawn)	?	.	-19%	.	.	1.2%	.	9%
Cc1ccc(S(=O)(=O)NCCc2nnc3ccc(SCC(=O)Nc4ccc(OC(F)(F)F)cc4)nn23)cc1	6%[46.1 µM]	.	-20%	.	.	-0.1%	.	?
Cn1c(N)c(C(=O)COC(=O)CN2C(=O)c3ccccc3C2=O)c(=O)n(C)c1=O	.	1%	-11%	16%	-7%	-4.8%	.	14%
COc1ccc(N(C(=O)CNC(=O)c2ccco2)C(C(=O)NC2CCCC2)c2ccc(C)o2)cc1 (stereo not drawn)	.	0%	13%	-19%	5%	.	-11%[46.1 µM]	.
CSc1cccc(NC(=O)C(C)C)c1	19%	-2%	-15%	-23%	2%	.	1%	.
Cc1ccc(NC(=O)c2cc(C(C)(C)C)nn2Cc2ccccc2)cc1	2.8µM*	-2%	-17%	5%	-2%	.	?	.
Nc1ccccc1NC(=O)c1ccccc1N	6%	-4%	28%	-11%	-7%	4.2%	?	-6%
O=C(/C=C/c1ccccc1)NC(=S)Nc1ccccc1O	?	-1%	3%	1%	-2%	.	?	.
COc1cccc(CN(CC(=O)NCc2ccco2)C(=O)CNS(=O)(=O)c2ccccc2)c1	-4%	1%	24%	6%	14%	.	-26%[46.1 µM]	.
CC(C)Oc1ccc(C(=O)Nc2ccc3c(c2)CCCN3C(=O)c2cccs2)cc1	?	.	22µM*	.	.	-3.0%	.	-7%
C=CCNCCOc1ccccc1-c1ccccc1	6%	15%	14%	-22%	23%	-0.9%	?	-10%
O=C(O)CSc1nnc(CNc2cccc(C(F)(F)F)c2)n1Cc1ccco1	0%	3%	-3%	2%	10%	-0.7%	?	?
Cc1ccc2nc(Nc3ccccc3O)nc(-c3ccccc3)c2c1	-6%	8%	.	7%	1%	-5.1%	8%	-15%
COc1ccccc1/C=N/NC(=O)c1ccccc1Cl	5%	0%	29%	-8%	.	.	7%[46.1 µM]	.
O=C(Nc1nccs1)c1ccc(COc2c(F)c(F)cc(F)c2F)cc1	.	-1%	31%[activator]	4%	-1%	.	.	.
CCOc1cc(CNc2ccc(OC)cc2)cc(Br)c1OCC(=O)NC(C)(C)C	-29%	-25%	.	-4%	4%	-4.9%	?	10%
C/C(=N/NC(=O)c1ccc(C(C)(C)C)cc1)c1ccccn1	?	.	-10%	?	.	.	?	.
CCOc1ccc(NC(=O)Cn2c(=O)n(Cc3ccccc3)c(=O)c3c4c(sc32)CN(C(C)=O)CC4)cc1	.	.	-24%	.	.	-4.7%	-27%[46.1 µM]	?
O=C(CSc1nnc(-c2cccc(S(=O)(=O)N3CCCCC3)c2)o1)c1ccc[nH]1	-12%	-5%	6%	28%	-8%	-0.3%	4%[46.1 µM]	16µM*
CCOC(=O)c1sc(N2C(=O)c3oc4cc(C)c(C)cc4c(=O)c3C2c2ccc(C)cc2)nc1C (stereo not drawn)	-1%[46.1 µM]	.	-6%	.	.	-1.5%	20%[46.1 µM]	12%
CCOc1ccccc1Nc1ncccc1C(=O)N1CCCC1	1%	0%	.	-1%	-7%	-1.6%	-21%	-1%
Cc1c(NC(=O)C2(c3ccccc3)CCOCC2)c(=O)n(-c2ccccc2)n1C	?	2%	16%	0%	-10%	7.1%	19%	9%
CCCC/C(=N/O)c1c(C)[nH]c2ccccc12	?	-3%	-1%	-5%	-6%	.	-13%	.
Nc1ccc2c3c(cccc13)C(=O)N(c1ccccc1)C2=O	?	1%	11%	-5%	.	.	23%[46.1 µM]	.
Cc1ccc(CN(C)CC(=O)Nc2ccc3c(c2)CCC3)cc1	-14%[46.1 µM]	0%	-22%	-13%	-3%	.	?	.
Cc1nc(N)nc(Cl)c1Cc1ccc(Cl)cc1	-9%[46.1 µM]	-2%	-13%	23%	.	.	?	.
COc1cc(SC)ccc1C(=O)N1CCN(c2ccccc2)CC1	13µM*	1%	-22%	4%	-1%	.	-23%[46.1 µM]	.
N=c1n(-c2ccccc2)c(O)cc(=O)n1-c1ccccc1	11%	9%	7%	3%	25%	-4.3%	-2%	-4%
Carrying on.
SMILES	LASV entry inh	SARS PLpro yeast	StopGo reporter	RE007 growth inh	NS1 function inh	Cruzain Triton	MARV entry inh	Cruzain noTriton
CC(C(=O)N1CCCC1)c1ccc([N+](=O)[O-])cc1 (stereo not drawn)	-1%	24%	-6%	1%	9%	.	-21%[46.1 µM]	.
COc1ccc(S(=O)(=O)Nc2ccccc2OC)cc1NC(=O)Cc1cccs1	-8%	10%	-14%	5%	2%	-1.5%	?	-1%
CC(=O)Nc1ccc(NC(=O)COC(=O)c2ccccn2)cc1	17%	0%	2%	-12%	5%	.	20%[46.1 µM]	.
OCCN1CNC(=S)NC1	-7%[46.1 µM]	5%	-13%	-10%	1%	.	29%[46.1 µM]	.
CCOc1ccc(-n2c(Cc3cc(=O)[nH]c(=O)[nH]3)nnc2SCC)cc1	-13%	0%	-6%	2%	?	4.1%	-9%	-5%
COc1ccc(NC(=O)Nc2ccc(F)cc2F)cc1	?	-1%	6%	-9%	.	.	?	.
COc1ccccc1Oc1ccc(N/C=C2/CCCC2=O)cc1	?	-7%	12%	14%	0%	-11%	?	-4%
Cc1cccc(N2CCN(C(=O)CCS(=O)(=O)c3ccc4c(c3)CC(=O)N4C)CC2C)c1 (stereo not drawn)	12%[46.1 µM]	.	-23%	.	.	-0.5%	.	19%
CCCCN(CCCC)S(=O)(=O)c1ccc(OC)c2ncccc12	?	-5%	-8%	-11%	-36%	-8.3%	-31%	?
Cc1cc2c(n1-c1ccc(Br)cc1)CC(C)(C)CC2=O	-6%	-9%	-23%	5%	-80%	-3.9%	14%	-5%
N#CC1=C(Nc2ccccc2)SC=C(c2ccc(Cl)c(Cl)c2)N=C1N1CCOCC1	-21%	1%	?	32%	10%	-12%	?	-15%
CCCCC1(C(=O)OCC)CC(CSC(=N)N)OC1=O (stereo not drawn)	-18%	1%	-17%	5%	2%	.	4%[46.1 µM]	.
O=C1CC(c2ccccc2)n2nc(NC(=O)c3ccccn3)nc2N1 (stereo not drawn)	-18%	0%	-21%	6%	3%	3.9%	-20%	0%
O=C(NCc1cc(C(F)(F)F)cc(C(F)(F)F)c1)C1CC(c2c(Cl)cccc2Cl)=NO1 (stereo not drawn)	.	?	-12%	-2%	3%	-10%	0%	0%

Screening data: PubChem, National Center for Advancing Translational Sciences (NCATS)
